# hNpr1 antagonist = human Npr1 receptor antagonism | Potency, µM (series often up to 46.3 µM), for the others: at the top dose activity change, negative = inhibition, most hits filed as inhibitors | 1.6% of 76,000 active | HEK293 hNpr1 GloSensor cGMP, ANP-stimulated luminescence | P16066; active = well fitted inhibition curve with a large enough effect; inconclusive = small, poorly fitted or top-dose-only effect; inactive = no such curve, though single readings can be large or run the other way;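 further: nearly all actives have a fitted effect of over 60% in size; nearly all hits also lower the signal before the agonist is added; a reference antagonist and vehicle were the controls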
# Target sequence (P16066 whole entry, looked up): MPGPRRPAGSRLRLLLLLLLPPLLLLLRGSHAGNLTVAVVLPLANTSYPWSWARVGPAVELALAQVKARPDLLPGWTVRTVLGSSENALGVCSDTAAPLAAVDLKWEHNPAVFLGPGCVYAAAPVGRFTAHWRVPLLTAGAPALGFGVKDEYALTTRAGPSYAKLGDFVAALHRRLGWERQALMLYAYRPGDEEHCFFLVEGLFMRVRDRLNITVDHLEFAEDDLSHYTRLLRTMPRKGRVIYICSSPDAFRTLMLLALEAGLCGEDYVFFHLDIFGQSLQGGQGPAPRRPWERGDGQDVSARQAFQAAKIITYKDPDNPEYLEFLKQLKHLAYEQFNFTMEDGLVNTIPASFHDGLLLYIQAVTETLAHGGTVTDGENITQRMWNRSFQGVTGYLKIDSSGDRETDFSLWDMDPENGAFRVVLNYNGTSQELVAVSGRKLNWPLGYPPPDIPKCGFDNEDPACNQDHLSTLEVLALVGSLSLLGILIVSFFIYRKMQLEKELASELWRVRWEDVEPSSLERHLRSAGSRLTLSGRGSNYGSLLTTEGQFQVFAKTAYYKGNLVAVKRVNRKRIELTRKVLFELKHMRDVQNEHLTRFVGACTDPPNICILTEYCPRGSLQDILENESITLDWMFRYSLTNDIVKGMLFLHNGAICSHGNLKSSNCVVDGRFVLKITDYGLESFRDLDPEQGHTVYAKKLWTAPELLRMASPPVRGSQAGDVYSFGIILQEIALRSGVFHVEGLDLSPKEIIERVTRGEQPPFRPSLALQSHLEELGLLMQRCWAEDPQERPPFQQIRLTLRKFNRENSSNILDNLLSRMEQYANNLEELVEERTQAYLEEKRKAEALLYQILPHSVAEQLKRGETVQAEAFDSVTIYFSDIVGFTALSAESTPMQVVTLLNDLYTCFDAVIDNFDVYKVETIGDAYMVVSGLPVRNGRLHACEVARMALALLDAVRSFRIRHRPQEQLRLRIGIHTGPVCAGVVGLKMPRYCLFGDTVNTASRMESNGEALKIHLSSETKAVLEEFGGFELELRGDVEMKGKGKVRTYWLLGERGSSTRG
#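 HEK293 cells stably expressing human Npr1 and cGMP GloSensor pGS-40F, loaded 2 h with 2% GloSensor reagent, given compound 30 min at room temperature. Luminescence read before and 20 min after 0.1 nM hNppA.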
# Numbers without * were called inactive; ? = inconclusive; [ ] = dose if it differs, or a comment. On the % scale 0 is the no-effect control and ±100 the full control effect; potency means the concentration at half of the fitted maximal effect.
SMILES,hNpr1 antagonist
O=C(c1ccoc1)N1CCC2(CC1)NCc1ccccc1-n1ccnc12,0%
Cc1nc(-c2ccccc2Br)cc([C@H]2CN3CC[C@H]2C[C@@H]3CNC(=O)Nc2cccc(C#N)c2)n1,-5%
O=S(=O)(c1ccccc1)N1[C@H]2CC[C@@H]1c1cncnc1C2,5%
C=CCN(C)C(=O)[C@H]1CN2CCC1C[C@@H]2Cn1cc(CCO)nn1 (stereo not given in full),2%[70.6 µM]
Cn1nc(-c2ccc(F)cc2)cc1[C@H]1CN2CC[C@H]1C[C@@H]2CNC(=O)Nc1cccc(C#N)c1,1%
COc1ccccc1CC(=O)N1CCC2(CC1)c1nccn1-c1ccccc1CN2C,0%
Cc1cc(NCCc2c[nH]c(=O)[nH]c2=O)n2nccc2n1,1%
O=C(CC1CCCC1)N1[C@H]2CC[C@@H]1c1cnc(-c3ccc(F)cc3)nc1C2,4µM*
CN(C)C(=O)[C@H]1CN2CCC1C[C@@H]2Cn1cc(-c2ccc(-c3ccccc3)cc2)nn1 (stereo not given in full),1%[70.6 µM]
C=CCNC(=O)NC[C@H]1C[C@@H]2CCN1C[C@@H]2c1cc(C(CC)CC)nc(-c2ccncc2)n1,-4%
Cn1nc(C2CCNCC2)n(C2CCCC2)c1=O,5%
CN1Cc2ccccc2-n2ccnc2C12CCN(C(=O)Cc1cccs1)CC2,-2%
O=C(O)C1CN(Cc2ccoc2)CCN(C(=O)Cc2ccccc2)C1 (stereo not given),-6%
Cc1nc(-c2ccc(C(F)(F)F)cc2)cc([C@H]2CN3CC[C@H]2C[C@@H]3CNC(=O)N2CCOCC2)n1,2%
COCCNC(=O)[C@H]1CN2CC[C@H]1C[C@@H]2Cn1cc(-c2ccc(C(C)(C)C)cc2)nn1,4%[70.6 µM]
Cc1nc(-c2cccs2)cc([C@H]2CN3CC[C@H]2C[C@@H]3CNC(=O)C(C)(C)C)n1,-8%[70.6 µM]
CN(C)[C@@H]1CN(C(=O)Cc2cccnc2)CCC1(O)c1ccccc1 (stereo not given in full),-4%
C#C[C@H]1CN2CC[C@H]1C[C@@H]2CNCc1ccc(C(C)C)cc1,-2%[70.6 µM]
COc1cc2c(cc1CCc1ccccc1)N([S+](=O)([O-])c1ccc3c(c1)CCO3)CC21CCN(C(C)=O)CC1,-3%
Cn1cc(CN2CCN(C(=O)COc3ccc(F)cc3)CC2)ccc1=O,0%
CC[C@H]1CN2CC[C@H]1C[C@@H]2CNS(=O)(=O)c1ccc(NC(C)=O)cc1,5%[70.6 µM]
Cc1cccc(OCC(=O)N2CCN(Cc3ccc(=O)n(C)c3)CC2)c1,1%
CC(Cc1ccccn1)N(C)Cc1ccc(S(C)(=O)=O)cc1 (stereo not given),5%
COc1ccc(-c2cc([C@H]3CN4CC[C@H]3C[C@@H]4CNC(=O)c3ccco3)n(C)n2)cc1OC,2%
Cc1cnc(CCN)n1C1CC1,0%
COc1ccccc1CNC(=O)[C@H]1CN2CC[C@H]1C[C@@H]2Cn1cc(C2(O)CCCC2)nn1,4%
Cc1noc(C)c1S(=O)(=O)N1[C@H]2CC[C@@H]1c1cnc(-c3ccc(F)cc3)nc1C2,?
CC[C@H]1CN2CC[C@H]1C[C@@H]2CNC(=O)C1CCCCC1,0%[70.6 µM]
O=C(NC[C@H]1C[C@@H]2CCN1C[C@@H]2CN1CCC(Cc2ccccc2)CC1)c1ccc(C(F)(F)F)cc1,1%
CC(=O)N1CCC2(C1)N=C(c1cccnc1)C(=O)N2 (stereo not given),0%[70.6 µM]
CN(Cc1ccccc1)C[C@H]1CN2CC[C@H]1C[C@@H]2CNC(=O)c1ccccc1,1%[70.6 µM]
COc1cc2c(cc1Oc1ccccc1)NC(=O)C21CCN(Cc2cccnc2)CC1,-22%[70.6 µM]
Cn1nc(-c2ccco2)cc1[C@H]1CN2CC[C@H]1C[C@@H]2CNC(=O)c1cccs1,-1%[70.6 µM]
CC(C)n1c(C2CCNCC2)nn(C)c1=O,5%
O=C1CS(=O)(=O)C2(CCNCC2)N1c1ccccc1,0%
O=C(Cc1ccc(Cl)cc1)N1CCN(C2CCN(Cc3ccccn3)C2=O)CC1 (stereo not given),2%
COc1ccc(-c2cc([C@H]3CN4CC[C@H]3C[C@@H]4CN)n(C)n2)cc1OC,2%[70.6 µM]
COc1nc2ccccc2cc1CN1CCC2(C1)CN(C)C(=O)O2 (stereo not given),0%
CC(=O)c1ccc(NC(=O)NC[C@H]2C[C@@H]3CCN2C[C@@H]3c2cc(-c3ccco3)nc(C)n2)cc1,6%
Cc1nc(-c2ccc(C(F)(F)F)cc2)cc([C@H]2CN3CC[C@H]2C[C@@H]3CNC(=O)CCC(=O)O)n1,-4%
CC(C)NC(=O)NC[C@H]1C[C@@H]2CCN1C[C@@H]2CN1CCN(c2ccccc2)CC1,0%[70.6 µM]
COc1cccc([C@H]2CN(c3cc(C)nc(N)n3)[C@@H]3C4CCN(CC4)[C@H]23)c1,-1%
O=C(c1cccs1)N1CC(CO)C2(CCNCC2)C1 (stereo not given),7%
C#CCN(C)C[C@H]1CN2CC[C@H]1C[C@@H]2CNS(=O)(=O)c1ccc(C)cc1,-8%[70.6 µM]
Cc1nc(-c2ccccc2)cc([C@H]2CN3CC[C@H]2C[C@@H]3CNC(=O)C2CC2)n1,-1%[70.6 µM]
COc1cc2c(cc1OCC1CC1)NC(=O)C21CCN(C(=O)c2cccc(O)c2)CC1,4%[70.6 µM]
O=C(NC[C@H]1C[C@@H]2CCN1C[C@@H]2CN1CCCC1)c1ccccc1,-2%[70.6 µM]
CN(C)Cc1cn(C[C@H]2CC3CCN2C[C@@H]3C(=O)NCc2ccc3c(c2)OCO3)nn1 (stereo not given in full),1%[70.6 µM]
CCN(CC)C[C@H]1CN2CC[C@H]1C[C@@H]2CNS(=O)(=O)c1ccccc1,1%[70.6 µM]
COc1ccc(-c2ccc(=O)n3c2[C@@H]2C[C@@H](CN(C(=O)CSC)C2)C3)cc1,-1%[70.6 µM]
CC(C)c1ccc(NC(=O)OC[C@H]2C[C@@H]3CCN2C[C@@H]3c2cc(C3CCCC3)nc(-c3ccncc3)n2)cc1,-24%
CS(=O)(=O)N1C[C@H]2CCN(Cc3ccncc3F)C[C@H]21,2%
CCC(CC)c1cc([C@H]2CN3CC[C@H]2C[C@@H]3CNC(=O)COC)nc(-c2ccncc2)n1,3%
CCNC(=O)NC[C@H]1C[C@@H]2CCN1C[C@@H]2c1cc(C2CCCCC2)nn1C,-3%[70.6 µM]
COCC1CN(C)CC12CCN(Cc1ccncc1)CC2 (stereo not given),-17%
C=C[C@H]1CN2CC[C@H]1C[C@@H]2CNC(=O)C(CC)CC,2%[70.6 µM]
CN1Cc2ccccc2-n2ccnc2C12CCN(C(=O)c1ccc(F)cc1)CC2,-2%
COCCC(=O)N1[C@H]2CC[C@@H]1c1cnc(C)nc1C2,1%
Cc1ccc([C@@H]2CN(C(=O)c3ccco3)[C@@H]3C4CCN(CC4)[C@@H]32)cc1,7%
c1ccc(Nc2cc3c(cn2)CN(CC2CC2)CCN3)cc1,4%[70.6 µM]

# As a short view, some entries already given:
SMILES,hNpr1 antagonist
Cc1ccc([C@@H]2CN(C(=O)c3ccco3)[C@@H]3C4CCN(CC4)[C@@H]32)cc1,7%
c1ccc(Nc2cc3c(cn2)CN(CC2CC2)CCN3)cc1,4%[70.6 µM]

# The results go on:
SMILES,hNpr1 antagonist
N#Cc1ccc(C(=O)N2C[C@@H]3C[C@H](C2)c2c(-c4cccs4)ccc(=O)n2C3)cc1,3%[70.6 µM]
COc1ccc(C(=O)NC[C@H]2C[C@@H]3CCN2C[C@@H]3c2cc(-c3ccccc3)nn2C)cc1,-2%[70.6 µM]
COc1ccc(C(=O)N2C[C@@H]3C[C@H](C2)c2ccc(NC(=O)CN(C)C)c(=O)n2C3)cc1,8%[70.6 µM]
CSCC(=O)Nc1ccc(=O)n2c1[C@@H]1C[C@@H](CN(C(=O)c3ccc(F)cc3)C1)C2,-2%[70.6 µM]
O=C(NC1CCCCC1)[C@H]1CN2CC[C@H]1C[C@@H]2Cn1cc(C2(O)CCCC2)nn1,4%[70.6 µM]
O=C(Nc1ccc2n(c1=O)C[C@H]1C[C@@H]2CN(C(=O)Nc2ccccc2)C1)c1ccncc1,3%[70.6 µM]
Cn1nc(-c2ccc(F)cc2)cc1[C@H]1CN2CC[C@H]1C[C@@H]2CNCc1ccccn1,-3%[70.6 µM]
CN1CCN2C(=O)N(Cc3cccnc3)C[C@H]2C1,0%[70.6 µM]
COc1cc2c(cc1OCC1CCCC1)N(C(=O)C1CCC(C)CC1)CC21CCN(CC(=O)O)CC1 (stereo not given),0%
C=C[C@H]1CN2CC[C@H]1C[C@@H]2CNC(=O)C1CC1,3%[70.6 µM]
Cc1ncc2c(n1)C[C@@H]1CC[C@H]2N1C(=O)C1CCC1,4%
Cn1ccc2ccc(C(=O)N3CCC(C#N)(c4ccccc4)CC3)cc21,-23%
C=CCN(C)C[C@H]1CN2CC[C@H]1C[C@@H]2CNC(=O)NC(C)C,1%[70.6 µM]
CN(C)C(=O)[C@H]1CN2CCC1C[C@@H]2Cn1cc(CCO)nn1 (stereo not given in full),-1%[70.6 µM]
COc1ccc(-c2cc([C@H]3CN4CC[C@H]3C[C@@H]4CNC(C)=O)n(C)n2)cc1,6%[70.6 µM]
O=C(Cc1cccc(F)c1)N1CCC2(CC1)NCc1ccccc1-n1ccnc12,-3%
CN(C)Cc1cn(C[C@H]2C[C@@H]3CCN2C[C@@H]3C(=O)NCc2ccc(F)cc2)nn1,11%[70.6 µM]
CC(C)NC(=O)[C@H]1CN2CC[C@H]1C[C@@H]2Cn1cc(C2(O)CCCC2)nn1,2%[70.6 µM]
COc1ccccc1-c1cc([C@H]2CN3CC[C@H]2C[C@@H]3CNC(=O)C2CCCCC2)n(C)n1,1%
O=C1NCCCCCN(Cc2cccnc2)[C@H]2CCC[C@@H]12,-8%
CC(=O)c1ccc(NC(=O)NC[C@H]2C[C@@H]3CCN2C[C@@H]3CN2CCN(C)CC2)cc1,-2%[70.6 µM]
CCCCS(=O)(=O)N1C[C@@H](c2ccc3c(c2)OCO3)[C@@H]2[C@H]1C1CCN2CC1,2%
CCc1nc(C)c(C(=O)N2C[C@@H](c3ccc(F)cc3)[C@@H]3[C@H]2C2CCN3CC2)o1,0%
Fc1cccc(CC2CCOC3(CCNCC3)C2)c1 (stereo not given),1%
Cn1nc(-c2cccs2)cc1[C@H]1CN2CC[C@H]1C[C@@H]2CNC(=O)NCc1ccccc1,0%
Cc1cnc(CCN)n1CC1CC1,8%
COc1ccc(NC(=O)NC[C@H]2C[C@@H]3CCN2C[C@@H]3c2cc(-c3ccc(OC)c(OC)c3)nn2C)cc1,8%
Cc1nc(-c2cccs2)cc([C@H]2CN3CC[C@H]2C[C@@H]3CO)n1,2%[70.6 µM]
C#C[C@H]1CN2CC[C@H]1C[C@@H]2CNC(=O)COCC(=O)O,-3%[70.6 µM]
C#C[C@H]1CN2CC[C@H]1C[C@@H]2CNC(=O)COC,0%[70.6 µM]
C=C[C@H]1CN2CC[C@H]1C[C@@H]2CNC(=O)Nc1ccc(C(C)(C)C)cc1,5%[70.6 µM]

# Quoted from the entries so far for reference:
SMILES,hNpr1 antagonist
Cc1ncc2c(n1)C[C@@H]1CC[C@H]2N1C(=O)C1CCC1,4%
Cn1ccc2ccc(C(=O)N3CCC(C#N)(c4ccccc4)CC3)cc21,-23%
C=CCN(C)C[C@H]1CN2CC[C@H]1C[C@@H]2CNC(=O)NC(C)C,1%[70.6 µM]
CN(C)C(=O)[C@H]1CN2CCC1C[C@@H]2Cn1cc(CCO)nn1 (stereo not given in full),-1%[70.6 µM]
COc1ccc(-c2cc([C@H]3CN4CC[C@H]3C[C@@H]4CNC(C)=O)n(C)n2)cc1,6%[70.6 µM]
O=C(Cc1cccc(F)c1)N1CCC2(CC1)NCc1ccccc1-n1ccnc12,-3%
CN(C)Cc1cn(C[C@H]2C[C@@H]3CCN2C[C@@H]3C(=O)NCc2ccc(F)cc2)nn1,11%[70.6 µM]
CC(C)NC(=O)[C@H]1CN2CC[C@H]1C[C@@H]2Cn1cc(C2(O)CCCC2)nn1,2%[70.6 µM]
COc1ccccc1-c1cc([C@H]2CN3CC[C@H]2C[C@@H]3CNC(=O)C2CCCCC2)n(C)n1,1%
O=C1NCCCCCN(Cc2cccnc2)[C@H]2CCC[C@@H]12,-8%
CC(=O)c1ccc(NC(=O)NC[C@H]2C[C@@H]3CCN2C[C@@H]3CN2CCN(C)CC2)cc1,-2%[70.6 µM]
CCCCS(=O)(=O)N1C[C@@H](c2ccc3c(c2)OCO3)[C@@H]2[C@H]1C1CCN2CC1,2%
CCc1nc(C)c(C(=O)N2C[C@@H](c3ccc(F)cc3)[C@@H]3[C@H]2C2CCN3CC2)o1,0%
Fc1cccc(CC2CCOC3(CCNCC3)C2)c1 (stereo not given),1%
Cn1nc(-c2cccs2)cc1[C@H]1CN2CC[C@H]1C[C@@H]2CNC(=O)NCc1ccccc1,0%
Cc1cnc(CCN)n1CC1CC1,8%
COc1ccc(NC(=O)NC[C@H]2C[C@@H]3CCN2C[C@@H]3c2cc(-c3ccc(OC)c(OC)c3)nn2C)cc1,8%
Cc1nc(-c2cccs2)cc([C@H]2CN3CC[C@H]2C[C@@H]3CO)n1,2%[70.6 µM]
C#C[C@H]1CN2CC[C@H]1C[C@@H]2CNC(=O)COCC(=O)O,-3%[70.6 µM]
C#C[C@H]1CN2CC[C@H]1C[C@@H]2CNC(=O)COC,0%[70.6 µM]
C=C[C@H]1CN2CC[C@H]1C[C@@H]2CNC(=O)Nc1ccc(C(C)(C)C)cc1,5%[70.6 µM]

# Source: PubChem BioAssay (National Center for Advancing Translational Sciences (NCATS))

# The list is partial; the hit share may differ from the screen's.
